Source: PubChem (several laboratories)
Insulin prom inh – TRM-6 insulin promoter activity inhibition; inhibition, % at 2 µM; 130,000 compounds, 0.9% hits; TRM-6 cells (human fetal islet line), insulin promoter-eGFP reporter, imaging; reporter expression induced with tamoxifen;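 active = inhibition above the mean plus 3 SD, with well images judged a real hit on visual review, cut at about 60% in these data, passing the limit was not always enough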
HSV replic up – increases HSV replication in cells | maximum fold increase | 220,000 compounds, 0.005% hits | HSV replication augmentation in cells, fold increase;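 active = peak rise of 1.5-fold or more in the series; tested in PC3 cells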;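 also: first round at 10 µM; read as green reporter fluorescence; hits show the peak of a series up to 25 µM; 1 = signal of infected wells without compound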
PKD1 kinase inh – PKD1 (human) kinase inhibition; 200,000 compounds, 0.056% hits; inhibition, %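 (about 10 µM by stock and volumes)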; Q15139; PKD1 kinase fluorescence polarization assay;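 active = inhibition of 50% or more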;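 also: controls were vehicle for no effect and a reference inhibitor for full effect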
Target sequence (Q15139 whole entry, looked up): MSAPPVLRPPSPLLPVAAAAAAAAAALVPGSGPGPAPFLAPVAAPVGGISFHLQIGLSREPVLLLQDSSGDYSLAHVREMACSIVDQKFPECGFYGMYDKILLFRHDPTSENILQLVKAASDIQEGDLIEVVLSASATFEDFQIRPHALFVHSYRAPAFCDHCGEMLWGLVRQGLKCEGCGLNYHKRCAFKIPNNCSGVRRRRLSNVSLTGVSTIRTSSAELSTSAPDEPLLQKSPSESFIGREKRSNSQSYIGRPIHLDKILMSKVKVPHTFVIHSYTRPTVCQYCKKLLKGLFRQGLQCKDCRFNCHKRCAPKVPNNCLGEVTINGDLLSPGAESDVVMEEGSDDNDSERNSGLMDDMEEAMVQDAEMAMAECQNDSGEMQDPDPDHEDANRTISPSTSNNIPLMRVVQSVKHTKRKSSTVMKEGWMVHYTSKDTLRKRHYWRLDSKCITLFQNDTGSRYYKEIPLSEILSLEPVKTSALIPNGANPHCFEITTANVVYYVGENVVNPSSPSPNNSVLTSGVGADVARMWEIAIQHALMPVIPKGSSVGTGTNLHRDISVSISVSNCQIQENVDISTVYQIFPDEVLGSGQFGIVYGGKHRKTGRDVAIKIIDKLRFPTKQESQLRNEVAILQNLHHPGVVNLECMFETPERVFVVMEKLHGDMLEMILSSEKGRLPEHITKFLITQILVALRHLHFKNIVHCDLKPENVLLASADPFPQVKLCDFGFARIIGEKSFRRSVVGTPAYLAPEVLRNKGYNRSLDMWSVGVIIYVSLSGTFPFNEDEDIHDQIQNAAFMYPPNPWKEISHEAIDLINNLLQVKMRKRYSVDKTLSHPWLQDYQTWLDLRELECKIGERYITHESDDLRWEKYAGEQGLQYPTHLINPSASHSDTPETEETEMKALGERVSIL
GALR2 agonist – activates the human galanin receptor 2; O43603; GALR2-expressing cells, agonist activation read-out; activation, %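 (tested at 5 µM)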; 140,000 compounds, 0.48% hits;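 active = above mean plus 3 SD of all compounds, about 5% in these data, not always enough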;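 also: 0% = vehicle buffer wells and 100% = reference agonist at full effect; tested in CHO reporter cells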
RGS16-Gao – modulates binding between human RGS16 and Galphao; bead-based flow cytometry RGS16-Galphao binding, fluorescence; actives lie on both sides; binding response (% of control), % at 10 µM; AID 1441; 220,000 compounds, 0.38% hits; O15492+P09471;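 active = below 25% or above 175%, edge rows of some plates excepted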;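 also: Galphao activated by GDP with aluminum fluoride before binding; 100% = wells without compound and 0% = beads without RGS; some results beyond the cut were filed as inactive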
Insulin prom inh cell count – also measured in Insulin prom inh; calls as there; normalized cell count, %; measured here: cell count, toxicity; reference of the scale not given here;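 cells exposed to compound for 48 h; stained nuclei by imaging scaled within each plate; lower means fewer cells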
HSV replic up primary fold – also measured in HSV replic up; calls as there; fold increase; compound at 10 µM; measured here: primary screen fold increase 10 uM; tested in PC3 cells;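 GFP signal in the first replicate; 1 = infected wells without compound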
An asterisk follows results filed as active; i = inactive; nt = not tested or not shown; [ ] = another dose, or the depositor's remark.

SMILES	Insulin prom inh	Insulin prom inh cell count	HSV replic up	HSV replic up primary fold	PKD1 kinase inh	GALR2 agonist	RGS16-Gao
CCCCS(=O)(=O)NC1=NCN(Cc2ccco2)CN1	-12	100	i	0.89	0	1.2	104
Cc1cccc(NC(=O)c2cn(-c3ccccc3)nc2-c2ccccc2)c1	-10	133	i	1	-6	-0.6	106
CCN(CC)CCOC(=O)c1ccc(NC(=O)CCNC(=O)Cn2ccc3ccccc3c2=O)cc1	2	110	i	0.98	-20	-0.9	97
CN(Cc1ccccc1)C(=O)C1CCCN(Cc2ccc(Cl)cc2)C1 (stereo not given)	-28	84	i	0.83	-3	-0.6	119
CCC(C(=O)OCC(=O)Nc1cc(OC)ccc1OC)c1ccccc1 (stereo not given)	-17	118	i	1.1	-4	nt	101
Cc1c(C#N)c(O)n(CCO)c(=O)c1N=Nc1ccc(S(N)(=O)=O)cc1	-5	126	i	0.97	-4	nt	108
COc1ccc(C(=O)C2CC2c2ccc3c(c2)OCO3)cc1 (stereo not given)	-25	68	i	1	2	nt	101
CC1Cc2ccccc2N1S(=O)(=O)c1cccc(C(=O)N2CCN(c3ncccn3)CC2)c1 (stereo not given)	22	100	i	0.88	-5	nt	106
Cc1[nH]nc2c1C(=O)CC(C)(C)C2	nt	nt	i	0.83	4	-1.4	101
C[n+]1ccc(/C=C/c2cccs2)cc1	nt	nt	i	1.1	nt	nt	93
CCc1ccc(N/C(SCc2ccccc2C)=C(/C#N)C(=O)NCc2ccco2)cc1	14	144	i	0.98	-8	-0.1	94
Cc1ccc2ncc(NC(=O)c3ccc(F)cc3)c(=O)n2c1	11	92	i	0.84	-7	-0.8	72
CCOC(=O)c1c(C)c(C(=O)NCCN2CCOCC2)c(C)n1C	-112	119	i	1	6	-2.2	103
CC1CCCN(S(=O)(=O)c2ccc(S(=O)(=O)NC(C)c3cccs3)cc2)C1 (stereo not given)	-33	45	i	0.93	-1	-0.6	101
O=C(Nc1ccc(Oc2cccnc2)cc1)c1ccccc1F	3	117	i	1	0	-0.3	103

Compound profiles, from the list above. Screens in order: Insulin prom inh	Insulin prom inh cell count	HSV replic up	HSV replic up primary fold	PKD1 kinase inh	GALR2 agonist	RGS16-Gao
CCc1ccc(N/C(SCc2ccccc2C)=C(/C#N)C(=O)NCc2ccco2)cc1 is entered as 14	144	i	0.98	-8	-0.1	94
COc1ccc(C(=O)C2CC2c2ccc3c(c2)OCO3)cc1 (stereo not given) is entered as -25	68	i	1	2	nt	101
CC1CCCN(S(=O)(=O)c2ccc(S(=O)(=O)NC(C)c3cccs3)cc2)C1 (stereo not given) is entered as -33	45	i	0.93	-1	-0.6	101

New compounds follow
SMILES	Insulin prom inh	Insulin prom inh cell count	HSV replic up	HSV replic up primary fold	PKD1 kinase inh	GALR2 agonist	RGS16-Gao
Cc1ccc(N=Nc2c(N)[nH]n3c(=O)cc(-c4ccccc4)nc23)cc1	nt	nt	i	1.1	9	-0.7	133
CC(C)CC(NC(=O)C(CC(C)C)NC(=O)C(Cc1ccc(OCc2ccccc2)cc1)NC(=O)OC(C)(C)C)C(N)=O (stereo not given)	44	100	i	0.9	-5	nt	100
Cc1ccc(/C=N/n2c(-c3ccc(Cl)cc3)n[nH]c2=S)o1	nt	nt	i	0.99	nt	nt	101
COC(=O)C1=C(C)Nc2c(c(=O)n(C)c(=O)n2C)C1c1ccc(Cl)cc1 (stereo not given)	nt	nt	i	0.94	-4	-0.7	108
Cc1nc2nc[nH]n2c(=O)c1C/C=C/c1ccccc1	nt	nt	i	1	-9	nt	100
COC(=O)c1ccc(COc2ncnc3c(Cl)cc(Cl)cc23)o1	37	115	i	0.72	-1	-0.5	99
COC(=O)CC(c1ccc(C(C)C)cc1)n1cccc1 (stereo not given)	-7	103	i	1.1	9	nt	100
COCCNS(=O)(=O)c1ccc(F)c(OC)c1	-50	69	i	0.99	-1	-2.1	90
Cc1cc(C)n(C(CC(=O)N2CCc3ccccc3C2)C(=O)O)n1 (stereo not given)	9	90	i	0.68	-3	-2.2	99
O=C(CC1SC(=O)N(c2ccccc2)C1=O)Nc1ccc(Br)cc1 (stereo not given)	nt	nt	i	1	nt	nt	99
COc1ccc(C(=O)NC(=S)Nc2ccc3oc(=O)ccc3c2)cc1OC	nt	nt	i	1.1	4	-2.5	243*[activator]
COc1cccc(NC(=O)Nc2cccnc2)c1	nt	nt	i	0.92	2	nt	96
O=C(Nc1ccc(S(=O)(=O)Nc2ncccn2)cc1)c1ccccc1NS(=O)(=O)c1ccc(F)cc1	nt	nt	i	0.91	-1	nt	102
CCOc1ccc2ncc(S(=O)(=O)c3ccccc3)c(N3CCC4(CC3)OCCO4)c2c1	-46	59	i	0.85	-9	0.6	97
N#Cc1ccsc1NC(=O)CSc1nnc(-c2ccccc2)o1	56	108	i	0.93	-5	-0.4	118
CC(C)Cc1nc2oc3c(=O)[nH]cnc3c2c2c1CCCC2	14	81	i	1.1	0	-1.1	32
N=C1CCC(=N)c2c1c(O)c1ccccc1c2O	nt	nt	i	1.1	nt	nt	124
CCOC(=O)c1cc(NC(=O)c2ccccc2)c(=O)n2c1oc1ccccc12	nt	nt	i	0.89	-1	nt	90
COC(=O)c1cc(CSc2nc3ccc(C)cc3[nH]2)oc1C	15	135	i	0.9	0	-0.5	nt
COc1ccccc1N1CCN(C(=O)c2ccc(Cn3c(=S)[nH]c4cc5c(cc4c3=O)OCO5)cc2)CC1	-7	145	i	0.95	1	nt	92
Cc1nn(Cc2c(F)c(F)c(F)c(F)c2F)c(C)c1NC(=O)c1ccc(COc2ccc(F)cc2)o1	nt	nt	i	1	0	-1.4	104
CC(=O)N1C(=O)c2cccc3cccc(c23)C(=O)N1C(C)=O	6	64	i	1	-3	-3.0	98
COc1ccc(O)c(CNc2ccccc2F)c1	19	102	i	1	-3	nt	104
O=C(Nc1ccccc1)N1CC=C(c2ccccc2)CC1	75*	89*	i	0.98	7	-1.0	100
Cc1cc(C(=O)COC(=O)CNC(=O)c2ccccc2)c(C)n1CC1CCCO1 (stereo not given)	nt	nt	i	1	-7	nt	97
CN(C(=O)COC(=O)c1cc(NS(=O)(=O)c2cc([N+](=O)[O-])ccc2Cl)ccc1O)C1CCCCC1	15	100	i	0.87	-7	-1.0	105
C=C1CCN([C@H](C(=O)NCc2ccc(Cl)c(Cl)c2)C(C)C)S(=O)(=O)c2ccccc21	nt	nt	i	1.1	nt	nt	85
COc1ccc(-c2cc(C(F)(F)F)nc(S(C)(=O)=O)n2)cc1	3	130	i	0.56	3	-0.8	107
CN(C(=O)c1c[nH]c(=O)cc1C(F)(F)F)c1ccc(Cl)cc1	nt	nt	i	0.94	nt	nt	95
Oc1oc(-c2ccc(Br)cc2)nc1C=Nc1ccc(Br)cn1	-73	88	i	0.95	-14	nt	161
COc1ccc(OC(C)C(=O)N2CCN(c3ccccn3)CC2)cc1 (stereo not given)	-250	93	i	0.87	9	-2.8	86
O=C(Cc1ccc2c(c1)CCCC2)Nc1ccccc1Cl	17	48	i	0.98	-8	0.1	99
CCOc1ccc(Nc2nc(N)nc(CCl)n2)cc1	nt	nt	i	0.69	nt	nt	101
Cc1cccc(Cn2c(=O)n(Cc3ccco3)c(=O)c3ccccc32)c1	-49	111	i	0.93	0	-4.3	93
COc1cc(/C=N/N(C)c2ccccc2)cc(Cl)c1O	29	95	i	0.88	-13	-3.2	100
COc1ccc2c(c1)-c1c(ssc1=S)C(C)(C)N2	67	121	i	0.8	-11	-2.7	43
NNC(=O)c1csc(Cc2c(Cl)sc3ccc(Cl)cc23)n1	nt	nt	i	0.97	nt	nt	98
O=C(CSc1nc2ccccc2c(=O)n1Cc1ccco1)c1ccc(F)cc1	-48	140	i	0.78	9	-1.0	102
Cc1nc2ccc(Nc3nc4cc(S(=O)(=O)N5CCOCC5)ccc4o3)cc2s1	-29	118	i	0.76	16	-1.1	74
c1ccc(-c2cn3cccnc3n2)cc1	67	89	i	0.95	1	-1.8	101
C=CCn1c(CSc2nc3ccccc3s2)n[nH]c1=S	38	138	i	0.89	-5	-3.8	96
COC(=O)Nc1ccccc1C(=O)N1CCC(O)(c2ccc(Cl)cc2)CC1	0	127	i	0.96	-7	-1.9	95
Cc1nc2ccc(NC(=O)N3CCCCC3)cc2nc1C	-43	146	i	0.81	-2	-1.6	106
COc1cc(-c2nc3n(n2)C(c2ccncc2)C(C(N)=O)=C(C)N3)cc(OC)c1OC (stereo not given)	nt	nt	i	0.79	2	-0.5	102
O=C(Nc1ccccc1C(F)(F)F)C1CC(=O)N(c2ccccc2F)C1 (stereo not given)	-22	265	i	1.1	-6	-0.5	86

A different layout for four compounds above.
mol,Insulin prom inh,Insulin prom inh cell count,HSV replic up,HSV replic up primary fold,PKD1 kinase inh,GALR2 agonist,RGS16-Gao
COc1cc(-c2nc3n(n2)C(c2ccncc2)C(C(N)=O)=C(C)N3)cc(OC)c1OC (stereo not given),nt,nt,i,0.79,2,-0.5,102
c1ccc(-c2cn3cccnc3n2)cc1,67,89,i,0.95,1,-1.8,101
CCOc1ccc(Nc2nc(N)nc(CCl)n2)cc1,nt,nt,i,0.69,nt,nt,101
O=C(CSc1nc2ccccc2c(=O)n1Cc1ccco1)c1ccc(F)cc1,-48,140,i,0.78,9,-1.0,102

RGS16-Gao: entries above that show a hit.
Structure | HSV replic up | HSV replic up primary fold | PKD1 kinase inh | GALR2 agonist | RGS16-Gao
COc1ccc(C(=O)NC(=S)Nc2ccc3oc(=O)ccc3c2)cc1OC | i | 1.1 | 4 | -2.5 | 243*[activator]

Further results
SMILES	Insulin prom inh	Insulin prom inh cell count	HSV replic up	HSV replic up primary fold	PKD1 kinase inh	GALR2 agonist	RGS16-Gao
Cc1ccc(S(=O)(=O)N(c2nc(NC(C)C)nc(NC(C)C)n2)n2cnnc2)cc1	31	111	i	0.81	14	0.0	151
COc1ccc(/C=C(/NC(=O)/C=C/c2ccccc2)C(=O)O)cc1	40	63	i	0.9	-8	nt	103
CCOc1ccc(NC(=O)CN(c2ccc(OCC)cc2)S(=O)(=O)c2c(C)[nH]c(=O)[nH]c2=O)cc1	36	75	i	0.83	4	nt	96
CS(=O)(=O)N1CCN(c2ccc(NC(=O)CSc3ccc(Cl)cc3)cc2)CC1	nt	nt	i	0.87	-6	-2.2	100
CCCCC1=CC2=CC(=O)C(C)(OC(=O)C3CCCC3)C(=O)C2=CO1 (stereo not given)	nt	nt	i	1.1	nt	nt	99
COc1ccccc1Cn1c(C(C)C)nc2ccccc21	nt	nt	i	0.86	nt	nt	95
C/C=C/C(=O)N1CC2(CC(c3cccc(NC(=O)CC)c3)=NO2)C[C@H]1C(N)=O (stereo not given in full)	nt	nt	i	1	nt	nt	106
NC(=O)c1cc(C(N)=O)nc(Cl)n1	nt	nt	i	0.93	nt	nt	101
Cc1ccc(-c2csc(/C=C3\SC(C)C(=O)N3CC(=O)Nc3ccccc3F)n2)cc1 (stereo not given)	nt	nt	i	0.93	nt	nt	91
O=C(Cn1ccc(C(F)(F)F)n1)N/N=C/c1ccc2c(c1)OCO2	nt	nt	i	0.98	-15	-0.3	114
CC1CCCCC1NC(=O)C1CCN(C(=O)c2sccc2-n2cccc2)CC1 (stereo not given)	10	45	i	0.99	-1	-1.1	144
CCOCCCNS(=O)(=O)c1ccc2c(c1)oc(=O)n2CC(=O)OCC	-357	38	i	0.95	-2	-1.7	95
C=CCn1cnc2scc(-c3ccccc3)c2c1=O	58	118	i	0.8	-7	-1.7	106
O=C(Nc1nccs1)c1ccc(Br)o1	26	90	i	0.99	-10	-2.9	99
CCCn1c(SCC(=O)NCCc2ccccc2)nnc1-c1cccnc1	nt	nt	i	1.1	-1	-2.2	115
Cc1cc(C)c(C#N)c(SCc2nnc(-c3ccccc3[N+](=O)[O-])o2)n1	nt	nt	i	0.89	-6	nt	104
CC1(C)CC(=O)CC(C)(C)N1OC(=O)c1ccccn1	0	127	i	0.92	-2	-3.5	102
O=C(Nc1ccccc1Cl)c1ccccc1S(=O)(=O)c1ccccc1[N+](=O)[O-]	nt	nt	i	0.92	-1	-1.0	98
COc1cc(C(=O)Oc2ccccc2/C=N/NC(=O)c2ccc(Cl)cc2)cc(OC)c1OC	-19	87	i	0.56	-10	-1.6	108
CCOc1cc(/C=C2/C(=N)N3OC(C)=CC3=NC2=O)ccc1OCCOc1ccccc1	-20	99	i	1	4	-1.4	99
COCCCNC(=O)c1c(N)n(/N=C/c2cccnc2)c2nc3ccccc3nc12	-12	156	nt	nt	-11	1.7	102
O=C(OC(C(=O)NCc1ccc2c(c1)OCO2)c1ccncc1)c1ccc(Cl)nc1 (stereo not given)	-5	55	i	0.93	4	nt	112
CCN1CCN(C(=O)c2ccc(OCC(=O)Nc3ccc(F)cc3)c(OC)c2)CC1	nt	nt	i	0.97	1	nt	111
NC(=O)c1oc2ccccc2c1NC(=O)c1ccco1	nt	nt	i	0.9	14	-0.5	102
CC1CCC/C(=C\Nc2ccc(O)cc2)C1=O (stereo not given)	50	70	i	0.98	0	-1.4	97
